# GIRK2 activ: GIRK2 channel activation. P48051. HEK293-GIRK2 thallium flux, Thallos fluorescence. calls only for hits at 25 µM. 63,000 compounds, 0.05% hits. AID 1259325;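 active = among the strongest 0.2% of first-round signals and kept after retests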;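 note: first round at about 10 µM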
# Target sequence (P48051 whole entry, looked up): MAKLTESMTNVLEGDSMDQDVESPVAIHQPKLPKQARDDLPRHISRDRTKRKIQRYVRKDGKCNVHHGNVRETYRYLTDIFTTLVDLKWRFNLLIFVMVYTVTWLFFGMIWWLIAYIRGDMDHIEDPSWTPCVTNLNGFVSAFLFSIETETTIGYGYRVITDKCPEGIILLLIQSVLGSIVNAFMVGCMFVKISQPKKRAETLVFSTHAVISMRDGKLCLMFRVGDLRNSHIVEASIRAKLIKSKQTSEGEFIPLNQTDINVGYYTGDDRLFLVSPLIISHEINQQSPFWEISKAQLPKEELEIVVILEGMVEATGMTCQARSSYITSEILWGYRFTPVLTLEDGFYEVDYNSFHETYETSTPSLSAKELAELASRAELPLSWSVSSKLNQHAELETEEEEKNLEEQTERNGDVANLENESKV
# Calls only; i = inactive.
Molecule	GIRK2 activ
CCCC(CCC)C(=O)Nc1cc(-c2cccs2)nn1-c1nc(C)c(C)c(=O)[nH]1	i
Cc1nc(-n2ncc(C(=O)NCc3cccs3)c2C)[nH]c(=O)c1C	i
C=C(C)COc1ccc2c(=O)c(-c3ccc(OC)c(OC)c3)c(C)oc2c1	i
Cc1ccc(S(=O)(=O)N(Cc2ccccc2Cl)C(=O)N2CCN(C)CC2)cc1	i
CCC(=O)N1CCCc2cc(NC(=O)Nc3ccc(OC)c(OC)c3)ccc21	i
COCCn1c(=O)c2c(nc3n2CCCN3)n(C)c1=O	i
O=C(CSc1nnc(-c2cccnc2)o1)Nc1cc(Cl)ccc1Cl	i
Cc1cc(NC(=O)CSc2ncc(-c3cccc([N+](=O)[O-])c3)n2-c2ccc(F)cc2)no1	i
O=C(/C=C/c1ccc2c(c1)OCO2)NCCCn1ccnc1-c1ccccc1	i
CCOC(=O)CN1N=C(C)Cn2c1nc1c2c(=O)n(CCC(C)C)c(=O)n1C	i
Cc1ccc(C)c(S(=O)(=O)NCCN2CCN(c3ccccc3)CC2)c1	i
CCOc1cccc2sc(N(CCN(C)C)C(=O)c3ccnn3C)nc12	i

# The list continues:
Molecule	GIRK2 activ
CC(=O)c1cccc(S(=O)(=O)N2CCC3(CC2)OCCCO3)c1	i
CSc1ccccc1C(=O)NCC1(c2ccc(F)cc2)CC1	i
CCN1CCCc2cc(CCNC(=O)C(=O)Nc3cc(Cl)ccc3C#N)ccc21	i
Cc1ccccc1C(=O)N1CCN(c2oc(/C=C/c3cccs3)nc2C#N)CC1	i
COc1cc2cc(CNc3ccccc3)c(=O)n(CC(=O)Nc3cc(C)ccc3C)c2cc1OC	i
COc1ccc(N2CCn3c2nc2c3c(=O)n(CC(=O)O)c(=O)n2C)c(OC)c1	i
O=C(NCc1ccccc1Cl)C(c1ccccc1)n1cccc1 (centres undefined)	i
CCSc1nn(CC(=O)Nc2c(C)cccc2C)c(N)c1S(=O)(=O)c1ccc(OC)cc1	i
Cc1cc(C)c(S(=O)(=O)Cc2nc(-c3ccccc3Br)no2)cc1C	i
CCC(=O)Oc1ccc2c(=O)c(-c3nc4ccccc4s3)coc2c1	i
O=C(c1c[nH]c2ccccc12)N1CCN(Cc2nnnn2-c2ccc(Cl)cc2)CC1	i
COc1coc(C(=O)Nc2nc3ccc(S(C)(=O)=O)cc3s2)cc1=O	i

# New compounds follow:
Molecule	GIRK2 activ
CCOCCn1c(-n2nc(C)cc2C)nc2c1c(=O)n(CC(N)=O)c(=O)n2C	i
O=C(CSc1ccncn1)Nc1nccs1	i
CC(O)CNC(=O)c1cc2c(=O)n(C)c(=O)n(C)c2n1Cc1ccco1 (centres undefined)	i
CCOc1ccc(OCC)c(S(=O)(=O)NCCn2ncccc2=O)c1	i
O=c1c2sccc2nc(SCc2nc(-c3ccccn3)no2)n1-c1ccc(Cl)cc1	i
C=CCOCC(O)Cn1c(N)nc2c1c(=O)n(C)c(=O)n2C (centres undefined)	i
CCOC(=O)c1cn(Cc2c(F)cccc2Cl)nc1S(=O)(=O)N1CCC(C)CC1	i
O=C(NCCCc1ccccc1)NCC1CCN(C(=O)c2cccnc2)CC1	i
O=C(NC12CC3CC(CC(C3)C1)C2)c1ccccc1Cl	i
NC(=O)C1CCN(C(=O)Cc2csc(Nc3ccc(OC(F)(F)F)cc3)n2)CC1	i
O=C(Cc1ccc(Cl)cc1)Nc1cnc(-n2cccn2)nc1	i
Cc1cccc2sc(N3CCN(C(=O)c4cc(-c5ccco5)on4)CC3)nc12	i

# (cont.)
Molecule	GIRK2 activ
COc1ccc(-c2cc3c(=O)[nH]nc(SCC(=O)NCc4ccc(SC)cc4)n3n2)cc1OC	i
CC1(C)OCC2(CO1)CN(S(=O)(=O)Cc1cccc(F)c1)C2	i
COC(=O)c1ccc(NC(=O)C2CN(C(=O)COc3ccccc3F)C2)cc1	i
O=C(c1cccc2ccccc12)N1CCN(c2ccc3nncn3n2)CC1	i
COc1ccc(C)cc1S(=O)(=O)N1CCC(OC)CC1	i
CCCCc1ccc(NC(=O)c2cc3c(=O)n(C)c(=O)n(C)c3n2CCOC)cc1	i
CCOC(=O)C1CCN(C(=O)C2CCN(c3c(C#N)cnc4ccc(F)cc34)CC2)CC1	i
Cc1c(C)n2c3c(=O)n(Cc4ccc(F)cc4)c(=O)n(C)c3nc2n1Cc1ccco1	i
CC(C)S(=O)(=O)c1ccc(CC(=O)Nc2ccc3c(c2)CCC(=O)N3)cc1	i
CCCOc1ccccc1C1NC(=O)NC(C)=C1C(=O)OC1CCCC(C)C1 (centres undefined)	i
CN(c1nc2ccccc2n2c(-c3ccccc3)nnc12)S(=O)(=O)c1ccccc1	i
COc1ccc(CCC(=O)N2CCCC(COCc3ccccc3)C2)cc1 (centres undefined)	i

# Not a retest: an excerpt of the list.
Molecule	GIRK2 activ
COc1ccc(-c2cc3c(=O)[nH]nc(SCC(=O)NCc4ccc(SC)cc4)n3n2)cc1OC	i
CC1(C)OCC2(CO1)CN(S(=O)(=O)Cc1cccc(F)c1)C2	i

# Continuation:
Molecule	GIRK2 activ
Cc1cc(C)n(-c2nc(CCNC(=O)Cc3c(C)noc3C)cs2)n1	i
CCOCCn1c(=O)c2c(nc3n(-c4ccc(CC)cc4)c(C)cn23)n(C)c1=O	i
COc1cc(/C=C2\SC(=S)N(c3ccc(C)cc3)C2=O)cc(OC)c1OC	i
C=CCN(C)CCCCCCOc1ccc(C(=O)c2ccc(Br)cc2)c(F)c1	i
CCCNS(=O)(=O)c1cc(C)c2[nH]c(=O)cc(C)c2c1	i
Cc1nn2c(NCc3cccnc3)cc(C(C)(C)C)nc2c1-c1ccccc1	i
COCCN1COc2ccc3c(=O)c(-c4ccccc4)coc3c2C1	i
O=C(Nc1ccc2c(c1)OCO2)c1ccc(Oc2nccnc2N2CCOCC2)cc1	i
O=C(Cc1ccc(-c2ccccc2)cc1)NCc1n[nH]c(=O)c2ccccc12	i
Cc1cc(C(=O)NC(C)Cc2ccco2)no1 (centres undefined)	i
Cc1nc(-c2cccs2)sc1CNC(=O)CSc1nnnn1C	i
COc1cccc(CNC(=O)Cc2cc(=O)[nH]c(SCc3ccccc3F)n2)c1	i

# Next compounds follow:
Molecule	GIRK2 activ
COc1ccccc1NC(=O)c1nnn(-c2cc(Cl)ccc2C)c1C	i
Cc1ccc(OCC(O)Cn2c(NCCc3ccccc3)nc3c2c(=O)[nH]c(=O)n3C)cc1C (centres undefined)	i
Cc1cc(C(=O)NCC#CCOc2ccc3c(c2)OCO3)c(C)o1	i
COCCCn1c(=O)c2ccccc2n(Cc2nc(-c3cccc(C(F)(F)F)c3)no2)c1=O	i
COc1ccccc1-c1c(C(F)(F)F)oc2cc(OS(C)(=O)=O)ccc2c1=O	i
O=C(C(=O)N1CCN(Cc2ccccc2)CC1)c1c[nH]c2ccccc12	i
Cn1nc(CNC(=O)/C=C/c2ccccc2Cl)cc1-c1ccco1	i
Cn1c(=N)c(C#N)cc2c(=O)n3ccccc3nc21	i
COc1ccccc1C(=O)N1CCC(Cn2ccnc2)CC1	i
O=c1c(SCc2ccc([N+](=O)[O-])cc2)nccn1-c1ccc(Br)cc1	i
O=C(NCCC(O)C1CC1)NC(c1ccccc1)c1ccccc1 (centres undefined)	i
COc1ccc(C(F)(F)F)cc1NC(=O)C1CCC(CNS(C)(=O)=O)CC1 (centres undefined)	i

# Additional compounds.
Molecule	GIRK2 activ
O=C1Nc2ccc(F)c3c(OCCO)cc(-c4ccc[nH]4)c1c23	i
COc1ccc(C)cc1NC(=O)CSc1nnc(-c2ccncc2)o1	i
CCCCn1c(-c2ccc(Cl)cc2)nc2oc3ccccc3c(=O)c2c1=O	i
COc1ccccc1CNC(=O)C(=O)Nc1cc(C)on1	i
Cc1ccc(C)c(Cn2c(=O)c3c(nc4n(-c5ccc(C(N)=O)cc5)c(C)c(C)n34)n(C)c2=O)c1	i
Cc1cccc(NC(=O)CSc2nnc(Cn3ccc(=O)[nH]c3=O)o2)c1C	i
COC(=O)c1ccc(NC(=O)CN2C(=O)N(C)C3(CCCCC3)C2=O)cc1	i
CCOC(=O)c1ccc(NC(=O)Cn2cnc3c2c(=O)n(C)c(=O)n3C)cc1	i
CCn1c(=O)c2c(nc3n2CCCN3c2ccc(Oc3ccccc3)cc2)n(C)c1=O	i
C=C(C)Cn1c(=O)c2c(nc3n(CCCN4CCOCC4)c(C)cn23)n(C)c1=O	i
COCCCNC(=O)c1cc2c(=O)n3ccccc3nc2n1CCCOC	i
CCOc1ccc2ccccc2c1C(=O)NCC1CCN(C)CC1	i

# (more compounds)
Molecule	GIRK2 activ
O=C(CSCc1ccccc1)NCC1COC2(CCCCC2)O1 (centres undefined)	i
CCN1C(=O)C(C)(C)COc2cc(NC(=O)NC(C)(C)C)ccc21	i
CN(C)S(=O)(=O)N1CCC(Cn2ccnc2)CC1	i
CCc1nc(-c2ccc(-n3ccc(C(=O)NCc4ccc5c(c4)OCO5)n3)cc2)no1	i
COc1ccccc1OCC(=O)Nc1ccc2c(c1)CCCN2C(=O)c1ccccc1	i
CCCN1C(=O)CCc2cc(NC(=O)NCc3ccc(OC)c(OC)c3)ccc21	i
CS(=O)(=O)c1ccc2nc(N3CCN(C(=O)COc4ccccc4)CC3)sc2c1	i
COc1cccc(-c2nc(SCC(=O)NCC3CCCO3)c(-c3ccccc3)[nH]2)c1 (centres undefined)	i
O=C(Nc1ccc2c(c1)C(=O)NCC2)c1ccsc1	i
Cc1ccc(S(=O)(=O)N2CCN(c3ccc(-c4ccc(F)cc4)nn3)CC2)s1	i
Cn1c(SCC(=O)Nc2ccc3c(c2)OCCO3)nc2c(-c3ccccc3)csc2c1=O	i
CCCCCCCCCCCCCCCC(=O)NCCc1ccc(O)c(O)c1	i

# Next records.
Structure,GIRK2 activ
Cc1oc2cc(O)ccc2c(=O)c1Oc1ccccc1Br,i
Cc1nc2ccccn2c1C(=O)NCCc1ccc(F)cc1,i
COc1ccc2c(=O)c3c(=O)n(Cc4ccco4)c(C4CCCCC4)nc3oc2c1,i
O=C(CSc1nccn1-c1ccc(C(=O)NCc2cccs2)cc1)NC1CCCC1,i
COc1ccccc1OCC#CCNS(=O)(=O)c1ccc(NC(C)=O)cc1,i
O=C(Nc1ccc(S(=O)(=O)N2CCN(c3cnccn3)CC2)cc1)c1cc2ccccc2oc1=O,i
CC(C)Oc1ccc(C(=O)Nc2cc(C(=O)N3CCCC3)cn(C)c2=O)cc1,i
Cc1cc(N2C(=O)C(O)=C(C(=O)c3cccs3)C2c2ccc(O)cc2)no1 (centres undefined),i
O=C(c1cc2ccccc2[nH]1)N1CCN(Cc2nc3ccccc3[nH]2)CC1,i
Cn1nc(CNC(=O)Nc2ccc3c(c2)OCO3)cc1-c1ccccn1,i
C[C@@H]1CC[C@@]2(C)C(CO)=CCC[C@@H]2[C@@]1(C)CC/C(=C/C(=O)O)CO,i
O=C(NCC(O)(c1ccco1)C1CC1)C1CC1 (centres undefined),i
Cn1nnnc1SCC(=O)N1CCN(Cc2nnnn2-c2ccccc2)CC1,i
Cc1nccn1CC1CCN(C(=O)c2c(F)cccc2Cl)CC1,i
COc1ccccc1C(=O)Nc1nnc(-c2cc(C)ccc2C)o1,i
CCN(CC)C(=O)c1cnc2nc(C)ccc2c1Nc1cc(OC)c(OC)c(OC)c1,i
Cn1nc(C2CCN(CC(=O)Nc3ccc(C(N)=O)cc3)CC2)n(-c2ccccc2)c1=O,i
Cc1cc(NC(=O)c2cc(Cl)ccc2Cl)n(-c2nc3ccccc3s2)n1,i
Cc1cn2c3c(=O)n(Cc4ccccc4)c(=O)n(C)c3nc2n1CCCO,i
Cc1ccc(NC(=O)CSc2ncccc2-c2nc(-c3cccs3)no2)cc1,i
CCOc1ccc(CC(=O)NCCC(O)C(C)(C)C)cc1 (centres undefined),i
COc1ccc(-c2nn3c(N4CCN(CCO)CC4)cc(C)nc3c2C)cc1OC,i
COc1ccc(-n2c(C)nc3ccc(NC(=O)Cc4ccccc4)cc3c2=O)cc1,i
COc1ncccc1C(=O)NCCn1nc(-c2ccccn2)n(C)c1=O,i
CC(=O)c1cc2cc(Br)cc(Br)c2oc1=O,i
CN(C)c1ccc(C(=O)N2CCC(Cn3ccnc3-c3ccccc3)CC2)cc1,i
Cc1cc(NC(=O)c2ccc(Oc3nccnc3N3CCCCC3)cc2)ccc1F,i
Cc1cc(C)n(-c2ccc(=O)n(CCNS(=O)(=O)c3ccc4c(c3)OCCO4)n2)n1,i
COc1cccc(-c2noc(C3CCCN(S(=O)(=O)c4ccc(Cl)cc4)C3)n2)c1 (centres undefined),i
Cc1nc(OCC(=O)Nc2nccs2)cc(-n2cccn2)n1,i

# Sorted by formula weight (ascending): part of the list above
Structure,GIRK2 activ
Cc1nc(OCC(=O)Nc2nccs2)cc(-n2cccn2)n1,i
Cc1oc2cc(O)ccc2c(=O)c1Oc1ccccc1Br,i
COc1ncccc1C(=O)NCCn1nc(-c2ccccn2)n(C)c1=O,i
COc1ccccc1OCC#CCNS(=O)(=O)c1ccc(NC(C)=O)cc1,i
CN(C)c1ccc(C(=O)N2CCC(Cn3ccnc3-c3ccccc3)CC2)cc1,i
COc1ccc2c(=O)c3c(=O)n(Cc4ccco4)c(C4CCCCC4)nc3oc2c1,i

# Reformatted with each value named: three of the compounds above.
O=C(Cc1ccc(Cl)cc1)Nc1cnc(-n2cccn2)nc1
  GIRK2 activ: i
Cc1cccc2sc(N3CCN(C(=O)c4cc(-c5ccco5)on4)CC3)nc12
  GIRK2 activ: i
COc1ccc(-c2cc3c(=O)[nH]nc(SCC(=O)NCc4ccc(SC)cc4)n3n2)cc1OC
  GIRK2 activ: i

# Next section:
Structure,GIRK2 activ
Cc1nn(C)cc1C(=O)NC(C)CCc1ccccc1 (centres undefined),i
CSc1ccccc1NC(=O)CCc1csc(NC(=O)c2ccc[nH]c2=O)n1,i
COC(=O)N1CCN(CCNC(=O)c2ccc[nH]c2=O)CC1,i
O=C(Nc1cccc(Cl)c1)c1c(O)c2cnn(Cc3ccccc3)c2[nH]c1=O,i
Cc1ccc(Cl)c2sc(N(Cc3ccncc3)C(=O)c3ccc(C#N)cc3)nc12,i
Cc1nc2c(sc3cccc(F)c32)c(=O)n1CC(=O)Nc1ccccc1C(F)(F)F,i
COc1ccc(CCNC(=O)NCCc2ccoc2)cc1,i
O=C(Cn1cccn1)N1CCC(Oc2ccc(C(F)(F)F)cn2)CC1,i
CN(C)S(=O)(=O)c1ccc(C(=O)N2CCC(CSc3ccccn3)CC2)cc1,i
Cc1oc2cc(OC(=O)C(C)C)ccc2c(=O)c1-c1nc2ccccc2s1,i

# Not all compounds are listed; count on the stated rates, not on these rows.
